T cruzi inh: T. cruzi replication inhibition; T. cruzi beta-gal in NIH3T3, luminescence, 90 h; inhibition, % (no concentration beside the values); actives 1.4% (n = 300,000);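 active = mean inhibition across valid replicates above about 55%, limit read from the data; inconclusive = mean below that limit but half or more replicates reach it; inactive = mean below it, under half of replicates reach it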;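 also: signal also drops with host cell toxicity which is not excluded here; 0% = plate median of DMSO wells and 100% = zero luminescence signal; higher percent means less beta-gal luminescence so fewer parasites; stock transfer was 50 nL into about 50 µL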
ALR H2O2 inh: inhibitors of human sulfhydryl oxidase ALR. P55789. purified ALR, DTT oxidation, H2O2 HRP-luminol luminescence. inhibition, % (concentration not given with the values). actives 3.8% (n = 290,000);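 active = mean and each replicate at 75% or more; inconclusive = only one of the two met; inactive = neither met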;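 also: stock transfer was 7.5 nL into about 7.5 µL; 0% = neutral wells and 100% = wells with inactivated enzyme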
LANA-H2B inh: blocks KSHV LANA binding to histone H2A/H2B; Q9QR71; cell-free LANA-H2A/H2B peptide, fluorescence polarization; inhibition, % (test concentration not listed); actives 0.6% (n = 320,000); in the data active = inhibition mostly above about 10%, no sharp cut-off; inactive = mostly below about 6.7%;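 also: stock transfer was 7.5 nL into about 10 µL; 0% = median of vehicle wells and 100% = median of positive control wells; one replicate is shown; the record names a cut of 25% in any replicate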
Target sequence (Q9QR71 whole entry, looked up): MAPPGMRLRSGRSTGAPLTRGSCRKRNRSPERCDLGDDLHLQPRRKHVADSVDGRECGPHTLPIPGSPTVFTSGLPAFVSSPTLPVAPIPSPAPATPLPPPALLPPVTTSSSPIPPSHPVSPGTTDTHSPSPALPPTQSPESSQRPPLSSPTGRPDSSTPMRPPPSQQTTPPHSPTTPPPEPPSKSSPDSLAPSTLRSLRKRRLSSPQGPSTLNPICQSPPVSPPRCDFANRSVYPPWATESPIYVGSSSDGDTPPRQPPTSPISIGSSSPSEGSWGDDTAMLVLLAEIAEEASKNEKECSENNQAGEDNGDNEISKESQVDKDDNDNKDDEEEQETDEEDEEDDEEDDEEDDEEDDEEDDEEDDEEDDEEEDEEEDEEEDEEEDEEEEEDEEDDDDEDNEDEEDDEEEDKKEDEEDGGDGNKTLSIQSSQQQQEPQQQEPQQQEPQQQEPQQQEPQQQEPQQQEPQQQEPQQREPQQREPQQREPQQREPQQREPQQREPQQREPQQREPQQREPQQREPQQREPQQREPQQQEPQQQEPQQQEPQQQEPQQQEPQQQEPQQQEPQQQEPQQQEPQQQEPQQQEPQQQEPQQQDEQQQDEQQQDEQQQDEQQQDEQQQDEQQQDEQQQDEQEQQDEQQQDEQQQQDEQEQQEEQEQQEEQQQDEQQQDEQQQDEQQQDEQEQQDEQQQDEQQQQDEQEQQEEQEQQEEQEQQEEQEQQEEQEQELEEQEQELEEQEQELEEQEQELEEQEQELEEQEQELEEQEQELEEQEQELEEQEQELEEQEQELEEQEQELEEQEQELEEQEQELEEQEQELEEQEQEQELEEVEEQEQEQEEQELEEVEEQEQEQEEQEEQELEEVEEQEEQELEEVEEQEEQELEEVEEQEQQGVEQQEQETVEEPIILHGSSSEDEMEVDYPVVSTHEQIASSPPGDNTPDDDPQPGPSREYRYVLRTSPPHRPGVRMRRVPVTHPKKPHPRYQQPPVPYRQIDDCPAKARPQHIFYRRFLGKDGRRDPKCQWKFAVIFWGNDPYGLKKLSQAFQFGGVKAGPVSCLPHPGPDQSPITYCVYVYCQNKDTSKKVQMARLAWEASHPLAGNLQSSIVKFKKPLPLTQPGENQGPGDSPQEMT
Beta cell apopt: beta cell apoptosis inhibition; AID 435005; INS-1E cytokine-induced death, ATP luminescence, 48 h; percent of positive-control rescue, neutral wells zero; actives 0.8% (n = 300,000); protection from apoptosis, % (no concentration beside the values);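 active = all replicates at 75% or more, or half of them and the mean; inconclusive = half reach 75% but not the mean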;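 also: 0% = cytokine-treated negative control wells and 100% = positive control rescue; higher means more ATP so stronger rescue from cytokine killing; wells of about 40 µL received 100 nL stock; the first replicate is given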
A1 inh: inhibitors of the anti-apoptotic protein A1, read as caspase activation; caspase activation, % (concentration not given with the values); actives 0.066% (n = 330,000); AID 2462; MEF A1-2A-BIM cells, Caspase-Glo 3/7 luminescence, 3 h; percent of clofoctol response, vehicle zero;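 active = over half of replicate activation scores above 10%, or exactly half above 10 with the replicate mean above 10; inconclusive = replicate mean below 10 yet half the replicates above 10; inactive = over half of replicates below 10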;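 also: wells of about 30 µL received 50 nL stock; many hits fall short of the cut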
Calb FLC: C. albicans growth modulation with fluconazole; growth inhibition, % (no concentration beside the values); actives 0.57% (n = 300,000); C. albicans CaCi-2 (fluconazole-resistant clinical isolate) + fluconazole, Alamar Blue growth, 48 h;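 active = most replicates above 75%; inconclusive = exactly half above 75%; inactive = most below 75%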;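 also: all wells also contain fluconazole at 8 µg/ml as a sub-toxic cotreatment; 0% = median of DMSO wells and 100% = median of geldanamycin control wells; wells of about 8 µL received 7.5 nL stock; the first replicate is given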
Beta2AR agonist: activates human beta-2 adrenergic receptor causing internalization. Am2.2-beta2AR cells, FAP receptor internalization, flow cytometry; reference of the scale not given here. response, % (no concentration beside the values). actives 0.43% (n = 340,000). P07550;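 active = response above a set limit, near 3 SD of response in nonfluorescent compounds, cut at about 42% in these data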;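 also: stock transfer was 100 nL into about 11 µL; a reference agonist was the positive control; negative values mostly stem from fluorescent compounds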
Ecoli rRNA inh: inhibitors of bacterial rRNA selective over humanized ribosomes; E. coli WT GFP vs humanized-ribosome RFP mutants, fluorescence, 24 h; stronger effect = lower value; DMSO median 0, no signal -100; GFP signal change (wild-type ribosome), % (test concentration not listed); actives 1.6% (n = 350,000); AID 720706;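 active = significant combined selectivity score with lowered wild-type GFP, culture density cut under 30%, mutant RFP and density less affected; inactive = any of these conditions unmet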; also: one replicate is shown; some compounds called inactive have numbers as strong as hits
Ecoli rRNA inh OD600: also measured in Ecoli rRNA inh; calls as there; OD600 change, %; measured here: OD600 growth;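 optical density of the mix in the first replicate; 0 = DMSO median and -100 = no signal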
Ecoli rRNA inh RFP: recorded beside Ecoli rRNA inh, whose call it bears; RFP signal change, %; measured here: RFP humanized mutant strains;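 first replicate; 0 = DMSO median and -100 = no signal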
An asterisk follows results filed as active; ? = inconclusive; . = no result given. These rows are one share of the data; count on the stated rates, not on these rows.

Every second line gives: T cruzi inh	ALR H2O2 inh	LANA-H2B inh	Beta cell apopt	A1 inh	Calb FLC	Beta2AR agonist	Ecoli rRNA inh	Ecoli rRNA inh OD600	Ecoli rRNA inh RFP
> Cc1ccc(CNC(=O)c2ccccc2NS(=O)(=O)c2ccc(Cl)nc2)cc1
→ -0.7	-2.8	-0.4	15.6	-0.3	50.6	1.9	-51.7	-81.5	-19.0
> COc1ccc(NC(=O)CSc2nnc(CN3CCOCC3)n2C)cc1Cl
→ -14.0	.	-14.7	-4.1	0.0	12.3	-6.4	8.1	14.8	0.3
> COc1ccc(C)cc1Nc1n[n+](-c2ccccc2)c(-c2ccc(SC)cc2)s1
→ 29.4	.	5.7	37.8	-7.5	-35.1	-0.1	-30.2	-34.0	-16.1
> COc1ccc(C(=O)NCC(c2cccs2)N2CCc3ccccc32)cc1OC (configuration not stated)
→ 26.3	47.5	3.8	6.4	1.0	22.9	4.6	-17.9	-16.0	0.6
> COc1cccc(OC)c1NC(=O)C1CCCN1C(=O)Nc1ccccc1F (configuration not stated)
→ -12.1	.	.	.	.	-4.9	-5.0	5.9	12.2	0.2
> CC1Cc2cc(S(=O)(=O)CCC(=O)N3CCN(c4ccccc4)CC3)ccc2N1C(=O)C1CC1 (configuration not stated)
→ -13.4	27.2	-4.2	1.3	0.3	-2.5	-10.9	-1.9	-0.4	3.5
> COc1ccc(NC(=O)CCCNS(=O)(=O)c2cccs2)cc1
→ -20.3	.	1.7	2.0	0.6	-1.7	4.0	.	.	.
> COC(=O)c1c(C(=O)c2ccc(Br)cc2)n(C)c2ccccc12
→ .	.	2.5	1.7	0.5	.	3.5	.	.	.
> O=C(c1ccco1)N1CCN(CCOc2ccccc2)CC1
→ -8.9	-0.4	3.4	-1.6	0.3	1.6	-0.8	8.6	5.9	1.2
> NC(=O)C[n+]1cccc(/C=N/O)c1
→ -7.4	-14.6	-0.7	-2.5	0.0	2.2	-0.7	14.6	-0.9	2.0
> Cc1ccc(C2=CC(c3ccccc3)n3ncnc3N2)c(C)c1 (configuration not stated)
→ -10.5	-12.8	-4.2	3.7	1.1	5.8	-11.6	-24.8	-28.0	0.5
> FC(F)(F)c1cccc(N2CCN(Cc3ccoc3)CC2)c1
→ 22.3	4.9	0.1	2.1	-0.2	4.5	2.0	-13.8	-5.2	-4.0
> COc1ccc(-c2ccc(SCC(=O)N3c4ccccc4CC3C)nn2)cc1OC (configuration not stated)
→ 5.8	1.4	-4.7	-0.9	0.4	9.1	3.1	.	.	.
> Cc1ccc(C)c(S(=O)(=O)N2CCN(C(=O)CN3C(=O)NC(C)(C)C3=O)CC2)c1
→ .	-4.9	-3.9	-5.2	-0.5	.	-3.2	7.2	6.9	0.5
> CCN(Cc1ccccc1)C(=S)Nc1cc(C(=O)OC)ccc1C(=O)OC
→ -13.1	-3.8	0.3	-8.8	-0.1	1.1	9.2	-3.4	-10.7	-10.1
> CCC(C)(C)n1nnnc1C(c1ccc(C)cc1)N1CCN(C(=O)c2ccco2)CC1 (configuration not stated)
→ 15.5	-2.9	-1.9	-7.6	-0.4	-49.4	1.9	.	.	.
> O=[N+]([O-])c1cccc(C2=NCCC(c3ccccc3)O2)c1 (configuration not stated)
→ -4.8	-11.8	-2.2	-1.9	-1.6	-8.1	0.5	6.4	16.1	6.0
> COc1ccc(Cn2c(=N)c(C(=O)NCC3CCCO3)cc3c(=O)n4ccccc4nc32)cc1 (configuration not stated)
→ 15.1	.	3.6	0.0	0.2	-0.9	8.9	.	.	.
> O=C(O)CCCn1ccc2cc(S(=O)(=O)N3CCCC3)ccc21
→ 29.4	-2.8	1.5	-2.0	0.6	-2.7	-2.8	7.4	0.5	0.6
> NC(=O)CC(NC(=O)Cc1cccc2ccccc12)c1ccc(NCCN2CCCC2)c([N+](=O)[O-])c1 (configuration not stated)
→ -18.5	-1.9	1.2	-4.4	1.3	-0.9	-5.2	9.7	17.9	1.9
> Cc1noc2ncnc(Sc3ccc(Br)cc3)c12
→ 62.1*	98.7*	0.9	-37.5	-0.7	108.3*	7.7	27.9	16.1	-4.5
> Cc1ccc(CNC(=O)C2CCCN2C(=O)Nc2ccc(C)cc2)cc1 (configuration not stated)
→ -6.5	-12.2	-3.0	1.5	0.2	12.8	-6.3	-2.4	-1.3	1.0
> COc1cccc(NC(=O)CN(C)C(=O)Cc2ccc3c(c2)CCC3)c1
→ .	2.6	-3.3	-0.7	-0.3	.	-1.5	1.7	-7.3	2.7
> CSc1nc(N2CCOCC2)c2c(c1C#N)CCCCC2
→ 29.5	-25.4	0.1	4.8	-0.3	27.3	3.2	.	.	.
> O=C(N=C1SC2CS(=O)(=O)CC2N1c1ccc(OC(F)(F)F)cc1)C1CC1 (configuration not stated)
→ -7.1	-1.8	2.8	1.4	0.3	-2.8	0.0	6.4	25.1	1.2
> Cc1cccc(C2Nc3ccccc3C(=O)N2CCc2ccccc2)n1 (configuration not stated)
→ 6.7	4.7	0.2	-4.1	1.6	39.9	15.7	1.6	-2.5	-6.5
> O=C(CCNC(=O)c1ccc(Cl)cc1)Nc1ccccc1N1CCCC1
→ -3.2	.	-2.5	-2.2	-0.1	-2.8	-1.9	2.3	11.6	1.5
> COc1ccc(OCC(=O)N2CCN(C(=O)COc3ccccc3)CC2)cc1
→ -1.6	-4.2	1.5	-3.3	0.5	-2.4	9.8	.	.	.
> CC(C)NC(=O)c1ccc(CNC(=O)OCC(F)(F)F)cc1
→ -5.5	1.3	-0.5	-2.9	-0.6	-0.1	-0.9	.	.	.
> CC1CCN(Cc2c(C(=O)N3CCc4ccccc4C3)nc3ccc(Cl)cn23)CC1
→ 23.1	-1.5	-8.3	-2.7	0.0	0.4	-2.9	-30.4	-39.7	-1.8
> CCOc1ccc(N/C=C/C(=O)c2ccc3ccccc3c2)c([N+](=O)[O-])c1
→ 18.7	-10.0	2.2	7.6	-2.9	2.6	10.2	.	.	.
> O=c1nc2scc(-c3ccccc3)n2c2ccccc12
→ 3.2	-0.1	3.4	0.3	-0.3	-3.9	-19.8	.	.	.
> COc1cccc(CN(C)CC(=O)NC(=O)NCc2ccco2)c1
→ -5.5	.	1.6	-1.7	0.7	6.1	5.8	.	.	.
> CC(=O)NCCn1c(SCC(=O)NCc2ccco2)nc2ccccc2c1=O
→ 4.3	-6.1	-2.8	-5.4	0.8	-8.9	-6.8	.	.	.
> COc1ccc(N2CCN(CC(O)COc3cc(C)cc(C)c3)CC2)cc1 (configuration not stated)
→ -3.3	69.0	-4.2	-1.8	-0.4	21.4	-9.4	-2.3	-6.5	2.4
> CC1CCCC(C)N1C(=O)CSc1nnc(-c2c[nH]c3ccccc23)o1 (configuration not stated)
→ 15.5	-0.4	-4.0	.	0.9	4.7	-0.3	-5.8	-7.1	0.4
> Cc1ccc(-c2cc(C(F)(F)F)n3ncc(C(=O)N4CCCCC4c4cccnc4)c3n2)cc1 (configuration not stated)
→ 36.4	-1.8	-1.2	-0.7	0.7	-1.6	-4.3	1.8	-12.1	-1.3
> COC(=O)c1c(NC(=O)CN2C(=O)NC3(CCC(C(C)(C)C)CC3)C2=O)sc2c1CCCCC2 (configuration not stated)
→ 57.9*	-11.5	2.6	14.9	-1.1	-31.6	-18.4	5.3	2.5	0.0
> CCOc1cc(C=C2C(=O)c3ccccc3C2=O)ccc1OCC(=O)Nc1ccc(C)cc1
→ 4.6	3.8	10.1	2.0	1.2	13.4	1.7	.	.	.
> COc1ccc(-c2noc(COc3ccc(Cl)c(C)c3)n2)cc1
→ -9.1	.	-0.2	-5.0	0.6	-19.5	0.1	14.6	9.4	2.0
> Cc1ccnc2nc(C(=O)OCC(=O)c3c[nH]c4ccccc34)nn12
→ -4.4	-1.8	0.9	-8.9	-0.8	-14.6	-3.2	-7.6	-2.1	-1.9
> CC1CCCCN1C(=O)c1cccc(NC2=C(Cl)C(=O)N(Cc3ccccc3)C2=O)c1 (configuration not stated)
→ .	22.5	-2.5	-8.0	-0.2	.	7.4	.	.	.
> CSCC(=O)NS(=O)(=O)c1ccc(C)cc1
→ -6.5	-13.1	-3.3	-5.1	2.5	2.7	-1.9	16.8	11.3	0.9
> CC(=O)c1ccc(NC(=O)C(C)Sc2nnc(-c3ccncc3)n2C2CC2)cc1 (configuration not stated)
→ .	-3.0	0.7	-4.8	-1.0	.	0.7	-5.8	5.8	2.3
> COc1ccc(Cn2c(-c3ccc(OC)cc3)nc3c(c(=O)c4ccccc4n3C)c2=O)cc1
→ -14.2	-8.2	5.3	4.3	-0.1	-23.8	.	.	.	.
> Nc1ccc(C(=O)c2cccs2)cc1
→ -7.4	.	.	-6.1	-1.2	-3.4	-5.9	.	.	.
> Cc1ccc2nc(SC(C(=O)c3ccccc3)c3ccccc3)nc(C)c2c1 (configuration not stated)
→ 27.9	-9.6	-3.2	-3.8	-0.7	6.2	-6.6	9.9	3.0	0.2
> O=C(NCCCn1ccnc1)c1ccc(F)cc1
→ -3.1	-16.1	2.4	.	0.6	-10.8	-4.8	0.5	4.7	-1.6
> CCCCN1C(=O)C(O)=C(C(C)=O)C1c1ccccc1 (configuration not stated)
→ 12.2	5.7	-3.7	-1.1	0.6	2.2	-0.4	.	.	.
> O=C(CSCc1ccc(Cl)cc1)Nc1cc([N+](=O)[O-])ccc1O
→ -8.1	-16.5	-14.9	-1.9	1.2	90.5*	0.0	-32.4	-30.9	7.4
> CN1C(=O)CSc2ccc(NC(=O)N3CCOCC3)cc21
→ -14.1	-5.2	-1.7	-0.6	0.7	2.7	5.9	1.5	4.8	-5.7
> CC1CCC(NC(=O)CCS(=O)(=O)c2ccc3c(c2)CCN3C(=O)C2CC2)CC1 (configuration not stated)
→ -3.8	-15.0	4.4	-3.1	-1.5	-3.5	104.6*	1.2	0.7	-0.7
> CCOC(=O)N1CCC(NC(=O)CS(=O)(=O)Cc2nc(-c3ccc(OC)cc3)oc2C)CC1
→ -25.5	-0.8	5.3	-0.4	0.5	0.3	7.3	3.1	10.9	-1.1
> CC(=O)c1cc2c(cc1NC(=O)CN1CCCCC1C)OCO2 (configuration not stated)
→ 17.7	5.6	-1.7	-4.3	?	-0.8	-1.2	6.8	-0.5	1.3
> Cc1c(NC(=O)c2ccc3ncccc3c2)c(=O)n(-c2ccccc2)n1C
→ -15.6	-0.4	3.8	3.3	1.3	-4.5	1.2	.	.	.
> O=C(OCCN1C(=O)c2cccc3c(N4CCOCC4)ccc(c23)C1=O)c1ccc(Cl)cc1Cl
→ 26.0	.	30.1*	-2.4	0.8	0.6	-34.6	.	.	.
> Cc1cc(C)cc(NC(=O)CSc2ncc(S(=O)(=O)c3ccccc3)c(=O)[nH]2)c1
→ -11.9	98.7*	-0.9	1.6	0.0	28.1	.	-8.7	-24.9	9.1
> Cc1cc(-c2n[nH]c(=S)n2-c2ccccc2)nn1C
→ -10.5	42.0	3.2	3.9	0.1	0.9	-4.7	6.8	9.6	-2.8
> Cc1ccc(Nc2ccc([N+](=O)[O-])nc2[N+](=O)[O-])cc1
→ 62.4*	-38.0	1.1	13.5	0.0	-12.1	-1.4	.	.	.
> Cc1cc(C)cc(N(CCC#N)C(=O)COC(=O)Cn2[nH]c(=O)c3ccccc3c2=O)c1
→ .	3.3	3.1	2.3	0.3	.	0.4	-0.3	4.8	1.6
